NS1 function inh: influenza NS1 inhibition | AID 2326 | Potency, µM (top dose mostly 46.1 µM), for the others: at the highest dose activity, positive = more growth | S. cerevisiae slowed by influenza A NS1, growth recovery by OD600 | 0.4% of 270,000 active; active means well fitted rising curve with a large enough effect; inconclusive means small, poorly fitted or top-dose-only effect; inactive means no such curve, though single readings can be large or run the other way; note: nearly all actives have a fitted effect of over 50% in size
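Read-out: OD600 growth recovery of NS1-expressing budding yeast. Cells grown overnight at 30C in -URA glucose medium, washed, resuspended and diluted 1:100 in 2% galactose assay medium, pH 6.0. Same strain lacking NS1 served as positive control.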
StopGo reporter: FMDV 2A StopGo reporter, luciferase signal. Potency, µM (series often up to 57.9 µM), for inactives: top-dose signal change, negative = less light. 1.2% of 410,000 active. human cells with a luciferase reporter of 2A StopGo recoding; control for the full effect not named in the record; active = well fitted falling curve with a large enough effect; inconclusive = small, poorly fitted or top-dose-only effect; inactive = no such curve, though single readings can be large or run the other way; tested in HEK293T cells; note: % is set by controls: 0 for no effect and ±100 for the full control effect; nearly all actives have a fitted effect of over 45% in size; luciferase light after 4 h
Marburg entry inh: blocks Marburg virus binding to or entry into cells; Marburg virus pseudotyped entry inhibition, cell reporter; control for the full effect not named in the record; about a third of the inactives were read at about 46 µM; Potency, µM (top dose mostly 37.8 µM), for the others: top-dose activity change, negative = inhibition, usual class: inhibitors; 1.8% of 300,000 active; AID 540276; active = well fitted inhibition curve with a large enough effect; inconclusive = small, poorly fitted or top-dose-only effect, or effect the other way; inactive = flat fitted curve, though single readings scatter; tested in HEK293 cells; about a fifth of its hits are not listed in these tables; note: % is set by controls: 0 for no effect and ±100 for the full control effect; luciferase read-out
Cruzain noTriton: inhibitors of Trypanosoma cruzi cruzain without detergent; P25779; purified cruzain, Z-FR-AMC fluorescence, no detergent; Potency, µM, without a hit: max response, negative = inhibition, hits mostly inhibitors; 2.3% of 200,000 active; AID 1476;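 note: plate controls were enzyme without inhibitor for no effect and buffer without enzyme for full effect; nearly all actives have a fitted effect of over 40% in size; top concentration of the series not given in the record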
Target sequence (P25779 123-467 limits assumed): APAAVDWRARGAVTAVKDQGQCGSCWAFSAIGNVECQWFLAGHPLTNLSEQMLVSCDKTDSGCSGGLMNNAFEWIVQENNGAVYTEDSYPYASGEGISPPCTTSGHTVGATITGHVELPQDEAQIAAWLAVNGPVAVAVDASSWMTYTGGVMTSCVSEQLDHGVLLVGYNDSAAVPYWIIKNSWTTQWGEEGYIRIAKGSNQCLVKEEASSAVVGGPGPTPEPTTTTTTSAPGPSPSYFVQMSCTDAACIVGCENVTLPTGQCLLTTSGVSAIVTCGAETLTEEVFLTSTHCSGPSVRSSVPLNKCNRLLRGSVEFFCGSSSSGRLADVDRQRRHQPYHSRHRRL
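Detergent-free condition (0.00005% Triton X-100) in acetate buffer pH 5.5 with DTT. 1.5 nM enzyme and compound were pre-mixed 15 min, then 2 uM Z-FR-AMC substrate added; reaction progress from fluorescence change between first and third reads (60 s).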
SARS PLpro yeast: blocks SARS-CoV papain-like protease in a yeast assay | 0.19% of 330,000 active | S. cerevisiae expressing SARS-CoV PLpro, growth rescue; control for the full effect not named in the record | AID 485353 | Potency, µM (series often up to 32.9 µM), inactives show at the highest dose activity, positive = growth rescue; active means well fitted rising curve with a large enough effect; inconclusive means small, poorly fitted or top-dose-only effect; inactive means no such curve, though single readings can be large or run the other way; note: 0% is about no effect; nearly all actives have a fitted effect of over 55% in size; growth read by luminescence after 48 h
Cruzain inh Det: blocks cruzain activity in presence of Triton detergent | P25779 | purified cruzain, Z-FR-AMC fluorescence, 0.01% Triton | Potency, µM, for inactives: max response, negative = inhibition, hits mostly inhibitors | 0.43% of 200,000 active;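 note: plate controls were neutral wells for no effect and buffer without enzyme for full effect; nearly all actives have a fitted effect of over 40% in size; top concentration of the series not given in the record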
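Sodium acetate buffer (100 mM, pH 5.5) containing 5 mM DTT and 0.01% Triton X-100 hosted 1.5 nM cruzain and test compound for 15 min at room temperature. Cleavage of 2 uM Z-FR-AMC was then tracked by fluorescence.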
Lassa entry inh: Lassa virus entry inhibition | Lassa virus pseudotype entry inhibition, cell reporter; control for the full effect not named in the record | 1.2% of 300,000 active | Potency, µM (highest dose often 37.9 µM), for the others: top-dose activity change, negative = inhibition, usual class: inhibitors | AID 540256; active means well fitted inhibition curve with a large enough effect; inconclusive means small, poorly fitted or top-dose-only effect, or effect the other way; inactive means flat fitted curve, though single readings scatter; tested in HEK293 cells; note: % is set by controls: 0 for no effect and ±100 for the full control effect; nearly all actives have a fitted effect of over 50% in size; luciferase read-out
RE007 growth inh: less growth of the S. pombe RE007 Vpr strain; S. pombe RE007 Vpr strain, BacTiter-Glo ATP luminescence, 24 h; control for the full effect not named in the record; Potency, µM (titrated, usually from 92.2 µM), without a hit: at the highest dose activity change, negative = less growth; 0.21% of 360,000 active; active = well fitted falling curve with a large enough effect; inconclusive = small, poorly fitted or top-dose-only effect; inactive = no such curve, though single readings can be large or run the other way;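 note: % is set by controls: 0 for no effect and ±100 for the full control effect; nearly all actives have a fitted effect of over 50% in size; the assay follows cell death caused by Vpr and the record does not say whether a fall means rescue or toxicity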
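Fission yeast strain RE007, carrying one chromosomally integrated HIV-1 vpr copy, was seeded at OD 0.01 in PMG+AL medium with 23 nL pinned compound. After 24 h at 30 °C and 99% humidity, viability was read by BacTiter-Glo luminescence.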
Numbers without * were called inactive; ? = inconclusive; nt = no result given; & = joins results of further samples; [ ] = dose if it differs, or a comment. Unless noted, calls come from the whole dose curve; as a rule, active = well fitted curve in the direction sought with a large enough effect; inconclusive = small, poorly fitted or top-dose-only effect, or another doubt; inactive = no such curve, though single readings can be large; an effect the other way counts as inactive or inconclusive. Potency is the fitted concentration of half-maximal effect.

smiles,SARS PLpro yeast,Lassa entry inh,Cruzain noTriton,NS1 function inh,StopGo reporter,Cruzain inh Det,Marburg entry inh,RE007 growth inh
CC1(C)CC2(CC(C)(C)N1)OC(=O)N1CCc3ccccc3C12C (stereo not drawn),1%,2%,-8%,8%,-14%,0.9%,9%,4%
CC(NC(=O)COC(=O)C1CCN(c2ccc(C(F)(F)F)cn2)CC1)c1ccc(Br)cc1 (stereo not drawn),-1%,-5%,nt,-9%,11%,nt,?,13%
O=C(c1ccc2ccccc2n1)N(CCO)Cc1ccccc1,1%,nt,nt,6%,12%,nt,nt,-5%
Cc1ccc(NC(=O)C(NCc2ccccn2)c2ccccc2)cc1 (stereo not drawn),2%,3%,nt,nt,60%[activator],nt,?,-11%
CCCn1c(SCC(=O)N2CCCC(C)C2)nnc1-c1cccnc1 (stereo not drawn),1%,5%,nt,3%,0%,nt,1%[46.1 µM],7%
CC(C)(CC(=O)O)Cc1nc(-c2ccc(Cl)cc2)no1,-4%,nt,-2%,-140%,47%[activator],-0.1%,nt,14%
O=C(O)C1Cc2ccccc2CN1C(=O)COc1ccc(Cl)cc1Cl (stereo not drawn),3%,8%,nt,nt,-13%,nt,19%[46.1 µM],0%
O=C(/C=C\Nc1ccc2c(c1)OCO2)c1ccccn1,-17%,0.45µM*,-13%,-23%,2µM*,4.0%,?,-20%
O=C(COC(=O)CNC(=O)c1cccc(Br)c1)Nc1nnc(-c2ccccc2)o1,12%,-7%,nt,nt,-22%,nt,18%,23%
COc1ccc(CCNC(C)=O)cc1,-8%,-9%,-7%,-1%,-12%,-2.1%,7%,8%
CC1=C(c2ccc(F)cc2)S(=O)(=O)NC1=NCc1ccccc1Cl,nt,7%[46.1 µM],19%,nt,59%[activator],3.9%,nt,nt
COC(=O)C1C(=O)NC(SC)=C(C#N)C1c1ccccc1 (stereo not drawn),?,4%,-1%,-4%,?,1.4%,12%,-15%
Cc1cc(C(=O)OCC(=O)Nc2ccc(S(N)(=O)=O)cc2)c2ccccc2n1,1%,11%[46.1 µM],nt,nt,21%,nt,22%[46.1 µM],-7%
Nc1nonc1-n1nnc(C(=O)N/N=C/c2ccc(F)cc2)c1-c1ccc2c(c1)OCO2,-4%,1%[46.1 µM],nt,12%,22%,nt,-24%[46.1 µM],-8%
CCc1nc2ccccc2c(C(=O)OCC(=O)NC(=O)c2cccn2C)c1C,0%,nt,nt,-1%,17%,nt,nt,8%

For reference, some entries already given:
smiles,SARS PLpro yeast,Lassa entry inh,Cruzain noTriton,NS1 function inh,StopGo reporter,Cruzain inh Det,Marburg entry inh,RE007 growth inh
Nc1nonc1-n1nnc(C(=O)N/N=C/c2ccc(F)cc2)c1-c1ccc2c(c1)OCO2,-4%,1%[46.1 µM],nt,12%,22%,nt,-24%[46.1 µM],-8%
CCc1nc2ccccc2c(C(=O)OCC(=O)NC(=O)c2cccn2C)c1C,0%,nt,nt,-1%,17%,nt,nt,8%

(more compounds)
smiles,SARS PLpro yeast,Lassa entry inh,Cruzain noTriton,NS1 function inh,StopGo reporter,Cruzain inh Det,Marburg entry inh,RE007 growth inh
O=C(CCn1cccc1)NC1CCCc2ccccc21 (stereo not drawn),4%,-6%,-4%,?,-8%,4.3%,7%,14%
CCOn1c(=O)c(=O)n(OC)c2ccccc21,1%,nt,nt,1%,-3%,nt,nt,4%
N#Cc1cc(C(=O)c2cc(Br)ccc2O)cn(C2CC2)c1=O,6%,-28%,-22%,?,6%,-2.0%,-12%,-8%
Cc1ccc(S(=O)(=O)N2CCN(C(=O)CCn3cncn3)CC2)cc1C,-1%,nt,nt,6%,6%,nt,3%[46.1 µM],-7%
O=C(NCc1ccccc1Cl)C1CCN(C(=O)c2sccc2-n2cccc2)CC1,1%,nt,-19%,-5%,-1%,-9.1%,4%,-2%
COc1cccc(NC(=S)NN=C2CCC(C(C)(C)C)CC2)c1 (stereo not drawn),4%,?,nt,-24%,-14%,nt,?,1%
COc1ccccc1CC(=O)N1CCCc2ccccc21,2%,0%,3%,-12%,-17%,0.6%,-6%,-5%
COc1ccc(S(=O)(=O)N(C)c2ccc(C(=O)N3CCCCC3)cc2)cc1,2%,?,nt,-3%,-13%,nt,?,3%
O=C(NCCc1ccc(Cl)cc1)C1CCN(C(=O)N2CCOc3ccccc32)CC1,?,nt,nt,-25%,0%,nt,nt,12%
CCCCCCCCCCCCCCCC(O)C[N+](C)(C)CCO (stereo not drawn),nt,1%,nt,nt,-14%,nt,26%,35µM*
CCn1c(C)nc2cc(C#N)ccc21,-1%,7%,nt,nt,9%,nt,19%[46.1 µM],1%
COC(=O)Cc1c(C)c2ccc(OCC(=O)N3CCC(C)CC3)c(C)c2oc1=O,-5%,-5%,nt,-16%,35µM*,nt,-26%,8%
COc1cc(CNCC(C)C)cc(Br)c1OCC(=O)Nc1ccccc1,-57%,-13%,-21%,3%,-17%,-15%,?,-1%[3.69 µM]
COc1ccccc1OCC(=O)OCn1c(SC)nnc(C)c1=O,29%,12%,2%,5%,-18%,5.3%,?,16%
CCCCn1c(=O)[nH]c(=O)c2c1nc(-c1ccc(OC(F)F)c(OC)c1)n2C,1%,?,nt,-2%,-6%,nt,?,-1%
Cc1ccc(C(=O)N/N=C/c2ccc(-c3ccc(Br)cc3[N+](=O)[O-])o2)o1,-3%,-7%,nt,4%,-14%,nt,-16%,-8%
CC1Cc2ccccc2C(=O)N1 (stereo not drawn),11%,5%,2%,12%,-5%,8.1%,28%,10%
Cn1cccc1Cc1nnc(SCC(=O)Nc2cccc(F)c2)n1CCc1ccccc1,12%,-25%,16%,?,-23%,-6.4%,?,-10%
Cc1ccc(Cn2c(=N)c(S(=O)(=O)c3ccc(Br)cc3)cc3c(=O)n4ccccc4nc32)cc1,-1%,nt,nt,-1%,4%,nt,nt,28%
CNC(=S)N1N=C(c2ccc(OC)cc2)CC1c1ccc(N(C)C)cc1 (stereo not drawn),15%,?,?,-11%,5%,-3.0%,?,1%
COc1ccc(S(=O)(=O)N(C)CC(=O)N2CCC(C(N)=O)CC2)cc1,-2%,-12%,11%,-1%,nt,6.4%,2%,3%
Cc1cnc(C(=O)Nc2cc(S(=O)(=O)N3CCOCC3)ccc2N2CCN(C)CC2)cn1,-14%,?,4%,11%,-17%,1.7%,?,17%
CCOC(=O)c1c(C)n(C)c2ccc(OC(=O)c3ccoc3)cc12,-7%,10%,2%,-4%,nt,-2.2%,16%,1%
O=C(O)Cc1csc(-c2cccc(F)c2)n1,-1%,?,nt,nt,-1%,nt,0%[46.1 µM],-6%
COc1ccc(NC(=O)C(Cc2ccccc2)n2cccc2)cc1OC (stereo not drawn),1%,5%,7%,-4%,-10%&-20%,-4.8%,15%&7%[46.1 µM],-10%
Cn1cnnc1SCC(=O)Nc1ccc2nc(SCc3ccccc3Cl)sc2c1,13%,48%,?,1%,31%[activator],-6.7%,-2%,3%
COc1ccc(NC(=O)CCSCCc2ccccn2)cc1OC,0%,1%[46.1 µM],nt,-1%,-14%,nt,3%[46.1 µM],-1%
O=C(CNC(=O)c1ccccc1Cl)OCC(=O)N1CCc2ccccc21,0%,?,nt,nt,94%[activator],nt,14%,28%
O=C(Nc1ccc(Cl)c(C(F)(F)F)c1)C(Cc1ccccc1)NS(=O)(=O)c1cccc2nsnc12 (stereo not drawn),nt,12%[46.1 µM],20µM*,nt,0%,-9.4%,-27%[46.1 µM],nt
COc1cc(C(N)=O)cc(Br)c1OC,?,10%,-15%,1%,-15%,-3.0%,11%,-8%

Compounds listed so far that have a cyano group:
smiles,SARS PLpro yeast,Lassa entry inh,Cruzain noTriton,NS1 function inh,StopGo reporter,Cruzain inh Det,Marburg entry inh,RE007 growth inh
COC(=O)C1C(=O)NC(SC)=C(C#N)C1c1ccccc1 (stereo not drawn),?,4%,-1%,-4%,?,1.4%,12%,-15%
N#Cc1cc(C(=O)c2cc(Br)ccc2O)cn(C2CC2)c1=O,6%,-28%,-22%,?,6%,-2.0%,-12%,-8%
CCn1c(C)nc2cc(C#N)ccc21,-1%,7%,nt,nt,9%,nt,19%[46.1 µM],1%

Quoted from the listing:
Cc1cnc(C(=O)Nc2cc(S(=O)(=O)N3CCOCC3)ccc2N2CCN(C)CC2)cn1 | Cruzain inh Det = 1.7%
COc1ccc(S(=O)(=O)N(C)CC(=O)N2CCC(C(N)=O)CC2)cc1 | RE007 growth inh = 3%
CNC(=S)N1N=C(c2ccc(OC)cc2)CC1c1ccc(N(C)C)cc1 (stereo not drawn) | RE007 growth inh = 1%
O=C(Nc1ccc(Cl)c(C(F)(F)F)c1)C(Cc1ccccc1)NS(=O)(=O)c1cccc2nsnc12 (stereo not drawn) | StopGo reporter = 0%
CC1Cc2ccccc2C(=O)N1 (stereo not drawn) | NS1 function inh = 12%
COc1ccc(NC(=O)C(Cc2ccccc2)n2cccc2)cc1OC (stereo not drawn) | SARS PLpro yeast = 1%

(more compounds)
smiles,SARS PLpro yeast,Lassa entry inh,Cruzain noTriton,NS1 function inh,StopGo reporter,Cruzain inh Det,Marburg entry inh,RE007 growth inh
CCOC(=O)C1CSC(CC(=O)Nc2ccc(Cl)cc2)C(=O)N1 (stereo not drawn),0%,12%,1%,-2%,nt,7.9%,5%,-8%
Cc1ccc(S(=O)(=O)NCCCNC(=O)c2ccccc2)cc1,4%,9%,-16%,7%,25%,1.2%,-8%,4%
CCSc1nc2ccccc2n1C(=O)c1ccc(S(=O)(=O)N2CCCCC2)cc1,-9%,21%,9%,-10%,26%,1.9%,13%,12%
O=C(COC(=O)C1CCCO1)Nc1nc(-c2ccc(F)cc2)cs1 (stereo not drawn),-1%,0%[46.1 µM],nt,nt,18%,nt,13%[46.1 µM],-14%
